# DUX4 txn inh: DUX4-mediated transcription inhibition; 293T-iDUX4 ZSCAN4-Gaussia luciferase reporter, 24 h; hits give low values; activity change, negative = inhibition, % (test concentration not listed); 0.8% of 37,000 active; AID 1224904;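 active = -10% or lower and over 25 points stronger than a control reporter; inconclusive = -10% or lower with a smaller gap; inactive = above -10%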;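 also: 0% = median of neutral control wells and -100% = median of positive control wells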
# DUX4 txn inh difference: also measured in DUX4 txn inh; calls as there; Gaussia minus Italica difference, %; measured here: selective DUX4 reporter inhibition;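 worked out from the two reporters; negative = selective loss of the DUX4 reporter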
# DUX4 txn inh control: recorded beside DUX4 txn inh, whose call it bears; activity change, negative = inhibition, %; measured here: Italica tet-on control reporter;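 0 = neutral control and -100 = positive control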
# Active calls of the source: *; u = inconclusive; x = not tested or not shown; & = joins results of further samples. This is a subset; rates above refer to the full screens.
SMILES,DUX4 txn inh,DUX4 txn inh difference,DUX4 txn inh control
C[C@@H]1CCCCO[C@@H](CN(C)C(=O)CCCN(C)C)[C@H](C)CN([C@@H](C)CO)C(=O)c2cc(N(C)C)ccc2O1,8,25,-17
CC(C)CC#Cc1ccc2c(c1)O[C@H](CN(C)C(=O)c1ccccc1F)[C@H](C)CN([C@H](C)CO)S2(=O)=O,2,1,1.0
CCNC(=O)[C@H]1[C@H](CO)[C@H]2Cn3c(ccc(-c4cccnc4)c3=O)[C@H]2N1Cc1ccccc1,-1,-1,0.3
CS(=O)(=O)N1[C@@H](C#N)[C@@H](c2ccccc2)[C@@H]1CO,4,1,2.5
CCCNC(=O)C[C@@H]1CC[C@@H]2[C@H](COC[C@@H](O)CN2C(=O)CC)O1,5,5,0.6
COCCNC(=O)C[C@H]1CC[C@H]2[C@@H](COC[C@H](O)CN2C(=O)c2cc(Cl)cc(Cl)c2)O1,0,0,0.2
C[C@H](CO)N1C[C@H](C)[C@H](CN(C)C(=O)Nc2cccc3ccccc23)OCCCC[C@H](C)Oc2ccc(NC(=O)c3ccncc3)cc2C1=O,-2,-1,-1.3
N#Cc1cccc(-c2ccc([C@H]3[C@H](CO)N4CCCCN(S(=O)(=O)c5ccccc5)C[C@@H]34)cc2)c1,u,x,x
COc1cccc(CNC(=O)[C@H]2[C@H](CO)[C@H]3Cn4c(ccc(C5=CCCC5)c4=O)[C@@H]2N3)c1,1,-2,3.1
C[C@H](CO)N1C[C@H](C)[C@H](CN(C)Cc2ccc(F)cc2)OCc2ccccc2-c2ccccc2C1=O,u,x,x
Cc1ccc(S(=O)(=O)Nc2ccc3c(c2)C(=O)N([C@@H](C)CO)C[C@H](C)[C@H](CN(C)C(=O)NC2CCCCC2)OCCCC[C@@H](C)O3)cc1,7,8,-1.9
O=C(O)C[C@H]1CC[C@@H]2[C@H](COC[C@@H](O)CN2S(=O)(=O)c2ccc(Oc3ccccc3)cc2)O1,1,-1,2.4
Cc1noc(C)c1NC(=O)Nc1cccc2c1O[C@@H](CN(C)C(=O)Nc1ccc3c(c1)OCO3)[C@H](C)CN([C@H](C)CO)C2=O,-2,-2,0.5
CO[C@H]1CN(C)C(=O)c2ccc(NC(=O)C3CC3)cc2OC[C@H](C)N(Cc2nccs2)C[C@@H]1C,-1,1,-1.2
O=C(CC(F)(F)F)N1C[C@H]2[C@@H](c3ccccc31)[C@H](CO)N2C(=O)c1ccncc1,3,-1,4.0
CN1C[C@@H]2[C@H](c3ccccc31)[C@@H](CO)N2Cc1ccccc1,2,1,0.1
CS(=O)(=O)N1[C@@H](C#N)[C@H](c2ccc(C#Cc3cccc(F)c3)cc2)[C@@H]1CO,-4,-5,1.0
Cc1ccc(-c2ccc([C@H]3[C@@H](CO)N4CCCCN(Cc5ccccn5)C[C@H]34)cc2)cc1,u,x,x
CN(C)Cc1cn(CC[C@@H]2CC[C@@H](NS(=O)(=O)c3ccc(-c4ccccc4)cc3)[C@@H](CO)O2)nn1,-3,2,-5.0
CCC(=O)N1CC[C@@H]2[C@H](CO)Nc3ccc(C#Cc4ccc(F)cc4)cc3[C@@H]21,-3,-11,7.6

# Four entries from above, bar-delimited.
SMILES | DUX4 txn inh | DUX4 txn inh difference | DUX4 txn inh control
CCCNC(=O)C[C@@H]1CC[C@@H]2[C@H](COC[C@@H](O)CN2C(=O)CC)O1 | 5 | 5 | 0.6
Cc1ccc(S(=O)(=O)Nc2ccc3c(c2)C(=O)N([C@@H](C)CO)C[C@H](C)[C@H](CN(C)C(=O)NC2CCCCC2)OCCCC[C@@H](C)O3)cc1 | 7 | 8 | -1.9
COCCNC(=O)C[C@H]1CC[C@H]2[C@@H](COC[C@H](O)CN2C(=O)c2cc(Cl)cc(Cl)c2)O1 | 0 | 0 | 0.2
CCNC(=O)[C@H]1[C@H](CO)[C@H]2Cn3c(ccc(-c4cccnc4)c3=O)[C@H]2N1Cc1ccccc1 | -1 | -1 | 0.3

# The listing picks up, starting two compounds before the break.
SMILES,DUX4 txn inh,DUX4 txn inh difference,DUX4 txn inh control
CN(C)Cc1cn(CC[C@@H]2CC[C@@H](NS(=O)(=O)c3ccc(-c4ccccc4)cc3)[C@@H](CO)O2)nn1,-3,2,-5.0
CCC(=O)N1CC[C@@H]2[C@H](CO)Nc3ccc(C#Cc4ccc(F)cc4)cc3[C@@H]21,-3,-11,7.6
COc1cccc(-c2ccc3n(c2=O)C[C@H]2[C@H](CO)[C@@H](C(=O)N(C)C)[C@@H]3N2C(=O)c2cnccn2)c1,10,-1,11
COc1ccccc1-c1ccc([C@H]2[C@@H](CO)N(C(=O)c3cccc(F)c3)[C@H]2C#N)cc1,-4,0,-3.7
CN1C(=O)c2cc(NC(=O)c3cccc(F)c3)ccc2OC[C@@H]2O[C@@H](CC(=O)NC3CCC3)CC[C@H]21,3&-1,-1&-3,4.1&1.6
C/C=C/c1ccc2c(c1)O[C@@H](CN(C)C(=O)Nc1ccc(OC)cc1)[C@H](C)CN([C@@H](C)CO)S2(=O)=O,1,0,0.5
CCCC(=O)N1CCC2(CC1)CN(C(=O)Nc1ccc(F)cc1)[C@@H](CO)c1c2c2ccc(OC)cc2n1C,u,x,x
CCNC(=O)[C@@H]1[C@@H](CO)[C@@H]2Cn3c(ccc(-c4ccc(F)cc4)c3=O)[C@H]1N2C(=O)c1ccccn1,-4,-3,-0.6
C[C@H](CO)N1C[C@H](C)[C@@H](CN(C)Cc2ccc(F)cc2)Oc2cc(C#CC(C)(C)O)ccc2S1(=O)=O,3,0,2.5
CO[C@@H](CN(C)C(=O)C1CCOCC1)[C@@H](C)CN([C@@H](C)CO)S(=O)(=O)c1ccccc1,-5,-3,-2.0
C[C@@H](O)C#Cc1ccc([C@@H]2[C@@H](CO)N3CCCCN(C(=O)c4ccncc4)C[C@H]23)cc1,15,8,6.8
CO[C@@H]1CN(C)C(=O)c2cc(NC(=O)Nc3c(C)noc3C)ccc2OC[C@H](C)NC[C@H]1C,-2,-5,3.1
CCCC(=O)Nc1ccc2c(c1)C(=O)N(C)[C@H]1CC[C@@H](CC(=O)NCCc3ccncc3)O[C@H]1CO2,-3,-2,-0.2
C[C@@H]1CCCCO[C@@H](CN(C)S(=O)(=O)c2ccc(F)cc2)[C@@H](C)CN([C@H](C)CO)C(=O)c2cc(NC(=O)CCCCCC(=O)Nc3ccccc3N)ccc2O1,-2,-2,0.0
CC=Cc1ccc2n(c1=O)C[C@H]1[C@H](CO)[C@@H](C(=O)NCc3ccccc3F)N(CCC)[C@@H]21 (mixture of isomers),1,5,-4.8
O=C(C1CC1)N1[C@@H](CO)[C@@H](c2ccccc2)C12CN(Cc1cncnc1)C2,-1,-7,6.7
CCN1[C@@H]2c3ccc(-c4ccc(F)cc4)c(=O)n3C[C@@H]2[C@@H](CO)[C@@H]1C(=O)NCCc1cn(C)cn1,0,0,0.5
CC(C)CC#Cc1ccc([C@H]2[C@H](CO)N3CCCCN(C(=O)NC4CCCC4)C[C@@H]23)cc1,0,-3,3.2
C[C@@H]1CCCCO[C@H](CN(C)Cc2ccc(Cl)c(Cl)c2)[C@@H](C)CN([C@H](C)CO)C(=O)c2cc(NC(=O)CCCCCC(=O)Nc3ccccc3N)ccc2O1,-4,-2,-1.8
O=C(C[C@@H]1CC[C@@H]2[C@H](COC[C@@H](O)CN2Cc2ccccc2F)O1)N[C@@H]1CCN(Cc2ccccc2)C1,0,3,-3.2
COc1ccc(C#Cc2ccc([C@@H]3[C@@H](CO)N4C(=O)CN(C(=O)c5ccc(F)cc5)C[C@H]34)cc2)cc1,-5,-7,1.5
OC[C@@H]1[C@@H](c2ccc(-c3cccc(F)c3)cc2)[C@H]2CN(CCC(F)(F)F)CCCCN12,-35*,-30*,-5.4*

# Record cards (already shown):
# CCN1[C@@H]2c3ccc(-c4ccc(F)cc4)c(=O)n3C[C@@H]2[C@@H](CO)[C@@H]1C(=O)NCCc1cn(C)cn1 in the list: DUX4 txn inh: 0; DUX4 txn inh difference: 0; DUX4 txn inh control: 0.5
# CCNC(=O)[C@@H]1[C@@H](CO)[C@@H]2Cn3c(ccc(-c4ccc(F)cc4)c3=O)[C@H]1N2C(=O)c1ccccn1 in the list: DUX4 txn inh: -4; DUX4 txn inh difference: -3; DUX4 txn inh control: -0.6

# (next part)
SMILES,DUX4 txn inh,DUX4 txn inh difference,DUX4 txn inh control
COCCNC(=O)C[C@@H]1C[C@H]2c3cc(NC(=O)Nc4ccccc4F)ccc3O[C@H]2[C@H](CO)O1,-6,-7,1.0
O=C(C[C@@H]1CC[C@@H]2NC[C@H](O)COC[C@H]2O1)N1CCc2ccccc2C1,-3,-2,-1.0
CC(C)NC(=O)N(C)C[C@H]1Oc2cc(-c3ccccc3)ccc2S(=O)(=O)N([C@H](C)CO)C[C@H]1C,1,2,-0.2
O=C(C[C@H]1C[C@@H]2c3cc(NS(=O)(=O)c4ccccc4)ccc3O[C@@H]2[C@@H](CO)O1)NCC1CC1,9,8,0.8
COc1ccc2c3c([nH]c2c1)[C@H](CO)NCC31CCN(Cc2ccccc2)CC1,-3,23,-26
C[C@H](CO)N1C[C@H](C)[C@H](CN(C)Cc2cccc(C(=O)O)c2)Oc2ncc(C#CCN(C)C)cc2C1=O,1,-3,3.8
COc1cccc(NC(=O)N(C)C[C@@H]2OCc3ccccc3-c3c(n(C)c4ccccc34)C(=O)N([C@H](C)CO)C[C@H]2C)c1,-2,-4,1.5
C[C@H]1CCCCO[C@@H](CN(C)C(=O)NC2CCCCC2)[C@@H](C)CN([C@@H](C)CO)C(=O)c2cc(NC(=O)Cc3ccccc3)ccc2O1,2,4,-1.9
Cc1ccc(S(=O)(=O)N[C@H]2C=C[C@H](CC(=O)NCc3ccc(Cl)c(Cl)c3)O[C@@H]2CO)cc1,u,x,x
O=C(C[C@H]1C[C@@H]2c3cc(NS(=O)(=O)c4ccc(F)cc4)ccc3O[C@@H]2[C@H](CO)O1)NCc1ccc(Oc2ccccc2)cc1,u,x,x
CN(C[C@H]1[C@@H](c2ccccc2)[C@H](CO)N1C(=O)C1CCC1)C(=O)c1ccccn1,-5,-8,2.4
COc1cccc(C#Cc2ccc([C@@H]3[C@@H](CO)N(C(=O)c4ccccn4)[C@H]3C#N)cc2)c1,-4,-5,1.8
CCCNC(=O)C[C@H]1CC[C@@H]2[C@H](COC[C@H](O)CN2Cc2ccc(Cl)c(Cl)c2)O1,8,-2,10.0
CCC(=O)N1CC2(C1)[C@H](c1ccccc1)[C@H](CO)N2C(=O)c1cccnc1,4,2,2.6
CO[C@@H]1CN(C)C(=O)c2ccc(NC(=O)C3CCC3)cc2OC[C@@H](C)N(Cc2ccccn2)C[C@H]1C,1,1,0.3
CC(C)NC(=O)N1C[C@@H]2[C@H](c3ccccc31)[C@H](CO)N2C(=O)c1ccccc1,4,0,3.4
C/C=C/c1cnc2c(c1)C(=O)N([C@@H](C)CO)C[C@H](C)[C@H](CN(C)CC1CCOCC1)O2,4,3,1.6
CO[C@H]1CN(C)C(=O)c2cc(NC(=O)C3CC3)ccc2OC[C@H](C)N(CC2CC2)C[C@H]1C,4,3,0.8
N#C[C@@H]1[C@@H](c2ccccc2-c2cccc(F)c2)[C@H](CO)N1C(=O)C1CCOCC1,22,14,7.4
CCNC(=O)C[C@@H]1CC[C@@H]2[C@H](COc3ccc(NC(=O)c4ccc5c(c4)OCO5)cc3C(=O)N2C)O1,-1,1,-2.4
CO[C@H]1CN(C)C(=O)c2cc(NS(=O)(=O)c3ccccc3F)ccc2OC[C@@H](C)NC[C@@H]1C,4,-1,5.6
C[C@@H]1CCCCO[C@H](CN(C)C(=O)Nc2cccc3ccccc23)[C@H](C)CN([C@@H](C)CO)C(=O)c2cc(NS(=O)(=O)c3cn(C)cn3)ccc2O1,3,-1,3.3
C[C@H](NC(=O)C[C@H]1C[C@@H]2c3cc(NC(=O)CN(C)C)ccc3O[C@@H]2[C@H](CO)O1)c1ccccc1,7,4,2.7
CCNC(=O)Nc1ccc2c(c1)C(=O)N(C)[C@H]1CC[C@H](CC(=O)NCC3CC3)O[C@H]1CO2,0,2,-2.7
C[C@@H]1CCCCO[C@H](CN(C)C(=O)C2CCCCC2)[C@H](C)CN([C@@H](C)CO)C(=O)c2cc(NC(=O)c3ccncc3)ccc2O1,-4,-2,-1.5
COc1ccc(S(=O)(=O)N(C)C[C@@H]2Oc3ccc(NS(=O)(=O)c4c(C)noc4C)cc3C(=O)N([C@H](C)CO)C[C@H]2C)cc1,-1,-8,7.1
O=C([C@@H]1[C@@H](CO)[C@@H]2Cn3c(ccc(-c4ccccc4F)c3=O)[C@@H]2N1CC1CC1)N1CCCCC1,-8,0,-8.2
C[C@@H]1C(=O)N[C@H](c2ccc(F)cc2)CC=CC[C@H](C)Oc2ccccc2C(=O)N1C (mixture of isomers),-1,-4,2.7
O=C([C@H]1N[C@H]2c3ccc(-c4ccccc4F)c(=O)n3C[C@H]2[C@@H]1CO)N1CCc2ccccc2C1,u,x,x
Cc1ccc(S(=O)(=O)N[C@H]2C=C[C@H](CC(=O)NCCCN(C)C)O[C@@H]2CO)cc1,4,3,0.2
COCC(=O)N1CC(=O)N2[C@H](CO)[C@@H](c3ccc(C#CCc4ccccc4)cc3)[C@@H]2C1,u,x,x
O=C(O)C[C@H]1C[C@H]2c3cc(NS(=O)(=O)c4ccc(F)cc4)ccc3O[C@H]2[C@@H](CO)O1,3,2,1.0
C[C@H]1CCCCO[C@H](CN(C)C(=O)Cc2ccccc2)[C@@H](C)CN([C@@H](C)CO)C(=O)c2cc(NS(C)(=O)=O)ccc2O1,7,1,5.6
C[C@@H]1CCCCO[C@H](CN(C)C(=O)CCCN(C)C)[C@@H](C)CN([C@@H](C)CO)C(=O)c2cc(NC(=O)Nc3ccc4c(c3)OCO4)ccc2O1,0,-4,4.1
C[C@@H]1CN([C@@H](C)CO)C(=O)c2c(c3ccccc3n2C)-c2ccccc2CO[C@@H]1CN(C)S(=O)(=O)c1ccc(C(F)(F)F)cc1,u,x,x
COc1cccc(C#Cc2ccc([C@H]3[C@@H](CO)N4C(=O)CN(S(=O)(=O)c5ccccc5C)C[C@H]34)cc2)c1,u,x,x
CCC(=O)N[C@@H]1CC[C@H](CC(=O)NCC2CC2)O[C@H]1CO,10,7,3.4

# Source: PubChem BioAssay
